High-throughput results (PubChem BioAssay)
Calb biofilm kill: clotrimazole potentiators killing C. albicans biofilm, primary screen, 4-compound mixtures. C. albicans biofilm persisters + clotrimazole, fluorescence viability; primary screen in compound mixtures of four per well. inhibition, % at 7.6 µM. 120,000 compounds, 0.02% hits. AID 1242, 2008;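 active = inhibition above 30.3% in the primary screen of four-compound pools, then above 30% when the compound was retested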;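 note: compounds exposed to preformed 24 h biofilms for 48 h; the number belongs to the whole pool; some results filed as inactive read as strong as hits; inactives centre near 12; 0% = biofilm with clotrimazole alone and 100% = kill control; retested singly at about 60 µM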
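Test system: C. albicans biofilms. Buffer or medium: RPMI/MOPS medium, pH 7.0. Timing: 48 h compound exposure at 37 °C. Technique: Alamar Blue fluorescence. Evaluation: percent inhibition of biofilm viability.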
* = called active by the depositor.

Screening CCn1c2ccccc2c2nnc(SCC(=O)c3c(N)n(C)c(=O)n(C)c3=O)nc21 returned Calb biofilm kill 17.
`CC(C)(C)NC(=O)CN(Cc1cccs1)C(=O)CNS(=O)(=O)c1ccc(F)cc1` gave Calb biofilm kill 2.
`CN(Cc1cc(-c2ccccc2)on1)C(=O)c1cc(COc2c(F)cccc2F)on1` gave Calb biofilm kill 9.
`CCOC(=O)CSc1nc2cc(C(F)(F)F)cnc2n1C` gave Calb biofilm kill 15.
Screening CC1CCCCN1C(=O)Cn1cc(C=O)c2ccccc21 (configuration not stated) returned Calb biofilm kill 6.
Screening COc1ccc(NC(=O)C2CCCN2C(=O)NCc2ccccc2)cc1OC (configuration not stated) returned Calb biofilm kill 17.
COC(=O)c1ccccc1-c1ccc(C=O)o1 was read as Calb biofilm kill 6.
`O=C(NC(=S)Nc1nc(-c2ccccc2)cs1)c1ccco1` gave Calb biofilm kill 12.
Screening CCOc1ccccc1N1C(=O)CC(Sc2n[nH]c(-c3ccccc3)n2)C1=O (configuration not stated) returned Calb biofilm kill 18.
`CC(=O)Nc1ccc(NC(=O)C(=O)c2cn(CC(=O)N3CCCCC3)c3ccccc23)cc1` gave Calb biofilm kill 17.
For COc1ccc(-c2cnnc(N/N=C/c3ccc(-c4ccc([N+](=O)[O-])cc4)o3)n2)cc1 the results were Calb biofilm kill 1.
Screening CCOc1ncccc1C(=O)OCC(=O)c1ccccc1Br returned Calb biofilm kill 13.
Screening Cc1ccc(C)c(NC(=O)CSc2nc3nc(-c4cccs4)cc(C(F)(F)F)c3c(=O)[nH]2)c1 returned Calb biofilm kill 12.
For O=C1CCC2S/C(=C/Nc3ccc(C(F)(F)F)cc3)C(=O)N12 (configuration not stated) the results were Calb biofilm kill 20.
For CCOc1cc(S(=O)(=O)NCc2ccncc2)ccc1Cl the results were Calb biofilm kill 16.
`c1ccc(OCc2noc(CN3CCC(C4CCCCC4)C3)n2)cc1` (configuration not stated) gave Calb biofilm kill 23.
Screening COc1ccc(C(=O)N/C(=C/c2cccnc2)C(=O)NCc2ccco2)cc1OC returned Calb biofilm kill 12.
Screening Cc1occc(=O)c1OC(=O)Nc1ccc(Cl)c(Cl)c1 returned Calb biofilm kill 11.
For COc1cccc(-c2ccc(C#N)c(SCC(=O)NCCc3ccccc3)n2)c1 the results were Calb biofilm kill 17.
`CC(C)CNS(=O)(=O)c1ccc(CCC(=O)N2CCN(c3ccc(F)cc3)CC2)cc1` gave Calb biofilm kill -1.
Cc1occc1C(=O)NNC(=S)Nc1ccccc1C(F)(F)F was read as Calb biofilm kill 17.
For N#C/C(=C\c1ccc2c(c1)OCO2)C(=O)NCc1ccco1 the results were Calb biofilm kill 16.
Screening O=C(N/N=C\c1ccc(F)cc1)c1ccc(Cn2cc(Br)c([N+](=O)[O-])n2)o1 returned Calb biofilm kill -10.
Screening Cc1ccc(C2NC(=O)CCC2[N+](=O)[O-])cc1 (configuration not stated) returned Calb biofilm kill 0.
For CCOc1ccc(NC(=S)N2CCC(N(C)CCN3CCOCC3)CC2)cc1 the results were Calb biofilm kill 21.
Screening COc1ccc(-c2cn[nH]c2-c2ccc(OCc3ccc([N+](=O)[O-])cc3)cc2O)cc1OC returned Calb biofilm kill 15.
For COc1ccc(C(=O)Nc2ccc3c(c2)OCCO3)cc1 the results were Calb biofilm kill 7.
Cn1c(N)c(C(=O)COC(=O)CNS(=O)(=O)c2ccc(Cl)c(Cl)c2)c(=O)n(C)c1=O was read as Calb biofilm kill 13.
N=C1CCCN1c1ccccc1O was read as Calb biofilm kill 12.
CC1(C)CC(=O)C(N=Nc2ccc(OC(F)F)cc2)=C(O)C1 was read as Calb biofilm kill 12.
`CC1=C(C(=O)OCC(C)C)C(c2ccc(Br)s2)NC(=O)N1` (configuration not stated) gave Calb biofilm kill 10.
`CC(C)CN=Cc1c(O)c([N+](=O)[O-])cc2oc3c(c12)CCCC3` gave Calb biofilm kill 17.
`COc1ccc(-c2ccc(N(C)C)cc2)cc1[C@H]1[C@H]2C=CC[C@@H](C)[C@@H]2C(=O)N1Cc1ccccc1` gave Calb biofilm kill 17.
Screening Nc1ncn(CC(=O)c2ccccc2)n1 returned Calb biofilm kill 21.
Screening Cc1cc(=O)[nH]c(/N=C(\N)Nc2ccc(Oc3ccccc3)cc2)n1 returned Calb biofilm kill 18.
Screening CC1(C)Cc2c(sc3nc[nH]c(=O)c23)CO1 returned Calb biofilm kill 5.
C/C(=N/NC(=O)Cc1cc(=O)[nH][nH]1)c1ccc([N+](=O)[O-])cc1 was read as Calb biofilm kill 4.
CC(C)(O)C#Cc1ccc(CN2CCN(CCc3ccccc3)C(CCO)C2)s1 (configuration not stated) was read as Calb biofilm kill 25.
For CN(C1CCCC1)C1CCN(C(=O)CNC(=O)/C=C/c2ccc(F)cc2)CC1 the results were Calb biofilm kill 12.
Screening Cc1cccc(NC(=O)CSc2nc3c(oc4ccccc43)c(=O)n2-c2ccccc2)c1 returned Calb biofilm kill 16.
`O=C(CN1C(=O)C2CC=CCC2C1=O)NC1CCCCC1` (configuration not stated) gave Calb biofilm kill 0.
For O=C(CCn1c(=S)oc2ccccc21)Nc1ccc(F)cc1 the results were Calb biofilm kill 14.
COC(=O)C1=NNC(C(=O)c2ccco2)C1c1ccc(OC)cc1 (configuration not stated) was read as Calb biofilm kill 11.
Screening COc1ccc(CN2C(=O)c3ccccc3C2=O)cc1C(=O)OC(C)C(=O)NC(N)=O (configuration not stated) returned Calb biofilm kill 8.
For S=C(NCc1ccncc1)NC1CCCCC1 the results were Calb biofilm kill 6.
`COc1cccc(NC(=O)C2CC2(c2cccc(OC)c2)c2cccc(OC)c2)c1` (configuration not stated) gave Calb biofilm kill 8.
For C[C@@H](C(=O)N1CCN(C(=O)OC(C)(C)C)CC1)n1cc(CCCN=C(NC(=O)OC(C)(C)C)NC(=O)OC(C)(C)C)nn1 the results were Calb biofilm kill 10.
`CC(=O)c1sc(-c2ccccc2)cc1N` gave Calb biofilm kill 19.
For Cc1c(O)c(S(=O)(=O)c2ccccc2)c(=O)n(-c2ccccc2)c1-c1ccccc1 the results were Calb biofilm kill 15.
For COc1cc(/C=N/Nc2ccccc2[N+](=O)[O-])cc(OC)c1O the results were Calb biofilm kill 13.
CCC(=O)Nc1cccc2ccccc12 was read as Calb biofilm kill 18.
COc1ccc(CNC(=O)CCn2c(=O)oc3ccccc32)c(OC)c1 was read as Calb biofilm kill 6.
`Cc1cc(OCC(=O)Nc2ccc(CN3CCCCC3)cc2)ccc1Cl` gave Calb biofilm kill 5.
For COc1ccccc1/C=C/C(=O)NCC(=O)N/N=C(\CCC(=O)O)c1ccccc1 the results were Calb biofilm kill 14.
For Cc1nn(-c2ccccc2)c(C)c1/C=N/n1cnnc1 the results were Calb biofilm kill 14.
Screening CCOC(=O)C1=C(C)NC(SC)=NC1c1ccccc1 (configuration not stated) returned Calb biofilm kill 8.
`CCC(=O)NC(=S)NNC(=O)COc1ccc(Br)cc1` gave Calb biofilm kill 11.
O=C(O)c1cccc(Nc2nc(C(F)(F)F)nc3ccccc23)c1 was read as Calb biofilm kill 16.
CCN1CCN(C(=S)Nc2cc(C(=O)OC)ccc2C(=O)OC)CC1 was read as Calb biofilm kill 9.
Screening Cc1cc2cc(C#N)c(N3CCN(S(C)(=O)=O)CC3)nc2cc1C returned Calb biofilm kill 12.
For Cc1cc(Br)c2c(c1)C(O)(N1CCCCC1C)C(=O)N2 (configuration not stated) the results were Calb biofilm kill -4.
For COc1ccccc1NS(=O)(=O)c1cc(NC(=O)c2cccs2)ccc1N1CCCCC1 the results were Calb biofilm kill 12.
Screening COCCCN1C(=O)/C(=C\c2cccs2)C(C(=O)OC)=C1C returned Calb biofilm kill 31.
`CCOC(=O)c1c(NC(=O)c2ccc(Cl)cc2)csc1C` gave Calb biofilm kill 15.
Screening COc1ccccc1N1CC=C(c2cccc([N+](=O)[O-])c2)NC1=O returned Calb biofilm kill 23.
Cc1ccc(C2C3=C(CCCC3=O)Nc3c2c(C)nn3-c2ccccn2)o1 (configuration not stated) was read as Calb biofilm kill 15.
For Nc1cnc(-c2ccccc2)nc1Cl the results were Calb biofilm kill 7.
O=C(Cc1ccccc1)Nn1c(-c2ccccc2F)nc2ccccc2c1=O was read as Calb biofilm kill 17.
Screening Cc1ccc(C)c(NC(=S)N(C)CCc2ccccn2)c1 returned Calb biofilm kill 4.
`O=c1oc(-c2ccc([N+](=O)[O-])cc2)nc2ccccc12` gave Calb biofilm kill 11.
COc1ccc(CN2CCC(CO)(Cc3cccc(C(F)(F)F)c3)CC2)cc1Cn1cccn1 was read as Calb biofilm kill 18.
Screening CCOC(=O)c1nnn(CC(=O)N2N=C(c3ccc(Cl)cc3)CC2c2ccccc2)c1C(=O)OCC (configuration not stated) returned Calb biofilm kill 11.
Screening CC(C)(C)c1ccc(OCC(=O)NNC(=O)C2CCCO2)cc1 (configuration not stated) returned Calb biofilm kill 25.
Screening Cc1nn(-c2ccccc2)c(=O)c2ccccc12 returned Calb biofilm kill 15.
Screening COc1ccc(/C=C/C(=O)NCCCc2ccccc2)cc1 returned Calb biofilm kill 7.
CCOc1ccc(-n2c(O)cc(=O)[nH]c2=O)cc1 was read as Calb biofilm kill 23.
`O=C(N/N=C/c1cn(-c2ccccc2)nc1-c1cc2ccccc2o1)c1cccnc1` gave Calb biofilm kill 8.
O=C(Nc1sc2c(c1CN1CCOCC1)CCC2)c1ccc(F)cc1 was read as Calb biofilm kill 4.
For CC1=NNC(=O)C1CC(=O)N/N=C/c1sccc1C (configuration not stated) the results were Calb biofilm kill 24.
Screening Cc1ccc(C(C)C)c(OCC(=O)NNC(=O)C(C(C)C)N2C(=O)c3ccccc3C2=O)c1 (configuration not stated) returned Calb biofilm kill 19.
`CCCNCc1cc(OC)c(OCC(=O)NCCc2ccccc2)cc1Br` gave Calb biofilm kill 7.
Cc1ccccc1C(=O)Nn1c(C)ccc1C was read as Calb biofilm kill 32.
Screening COCCNC(=O)c1cc(OC)c(OC)cc1[N+](=O)[O-] returned Calb biofilm kill 15.
Cc1ccc(S(=O)(=O)Oc2ccc(/C=C(/NC(=O)c3ccccc3)C(=O)NC(C)C(=O)O)cc2)cc1 (configuration not stated) was read as Calb biofilm kill 13.
O=C(Cn1c(C(F)(F)F)nc2ccccc21)N=Nc1c(O)[nH]c2ccc(Br)cc12 was read as Calb biofilm kill 2.
`C=CCNC(=S)Nc1cc(Cl)ccc1OC` gave Calb biofilm kill 8.
Screening CCOCCCNC(=O)C(NC(=O)c1ccc2c(c1)OCO2)c1ccccc1 (configuration not stated) returned Calb biofilm kill -9.
COc1ccc(-c2ccccc2)cc1NCc1ccc(OC)c(OC)c1 was read as Calb biofilm kill 1.
For COC(=O)C1=C(C)N=C2SCCC(=O)N2C1c1ccc(OC(=O)c2ccco2)cc1 (configuration not stated) the results were Calb biofilm kill 8.
Screening CC(C)(C)c1nnc2sc(SCC(=O)c3ccc4c(c3)OCCO4)nn2c1=O returned Calb biofilm kill 6.
For CC(O)CNCc1ccccc1C(F)(F)F (configuration not stated) the results were Calb biofilm kill 14.
For CCOC(=O)N1CCN(c2cc(NCCO)c([N+](=O)[O-])c3nonc23)CC1 the results were Calb biofilm kill 13.
Screening C/C(CC(=O)NCc1ccccc1)=N\NC(=O)c1cnccn1 returned Calb biofilm kill 9.
For O=C(CSc1nc2ccccc2o1)N/N=C/c1ccccc1 the results were Calb biofilm kill 15.
Screening O=C1C2C(c3ccccc3)CC=CC2[C@H](c2ccc3ccccc3c2)N1Cc1ccccc1 (some centres not stated) returned Calb biofilm kill 6.
For CCOC(=O)c1cnc2c(c(C)nn2C)c1Oc1ccc(OC)cc1 the results were Calb biofilm kill 14.
Screening CN(C)S(=O)(=O)c1ccc(NCC2COc3ccccc3O2)c([N+](=O)[O-])c1 (configuration not stated) returned Calb biofilm kill 9.
Screening NC(=O)c1ccc(Nc2nnc(-c3ccc(O)cc3)c3ccccc23)cc1 returned Calb biofilm kill 12.
Screening O=C(COc1ccccc1F)NCc1ccc(-n2cccc2)cc1 returned Calb biofilm kill -1.
For COCC(=O)N/N=C(\C)CC(=O)NCc1ccco1 the results were Calb biofilm kill 21.
For C=CCNCCOc1cccc(Br)c1 the results were Calb biofilm kill 12.
For COc1ccc(-n2c(C)cc(C(=O)Cn3nc(C(=O)O)c4ccccc4c3=O)c2C)cc1 the results were Calb biofilm kill -10.
For CC1=C(C(=O)OCC(C)C)[C@]23C(=O)c4ccccc4[C@@]2(O1)OC(N)=C3C#N the results were Calb biofilm kill 15.
Clc1ccc(COn2ccnc2)cc1Cl was read as Calb biofilm kill 1.

Entries above containing a nitro group on carbon, in the order listed:
For COc1ccc(-c2cnnc(N/N=C/c3ccc(-c4ccc([N+](=O)[O-])cc4)o3)n2)cc1 the results were Calb biofilm kill 1.
Screening O=C(N/N=C\c1ccc(F)cc1)c1ccc(Cn2cc(Br)c([N+](=O)[O-])n2)o1 returned Calb biofilm kill -10.
Screening Cc1ccc(C2NC(=O)CCC2[N+](=O)[O-])cc1 (configuration not stated) returned Calb biofilm kill 0.
Screening COc1ccc(-c2cn[nH]c2-c2ccc(OCc3ccc([N+](=O)[O-])cc3)cc2O)cc1OC returned Calb biofilm kill 15.
`CC(C)CN=Cc1c(O)c([N+](=O)[O-])cc2oc3c(c12)CCCC3` gave Calb biofilm kill 17.
C/C(=N/NC(=O)Cc1cc(=O)[nH][nH]1)c1ccc([N+](=O)[O-])cc1 was read as Calb biofilm kill 4.
For COc1cc(/C=N/Nc2ccccc2[N+](=O)[O-])cc(OC)c1O the results were Calb biofilm kill 13.
Screening COc1ccccc1N1CC=C(c2cccc([N+](=O)[O-])c2)NC1=O returned Calb biofilm kill 23.
`O=c1oc(-c2ccc([N+](=O)[O-])cc2)nc2ccccc12` gave Calb biofilm kill 11.
Screening COCCNC(=O)c1cc(OC)c(OC)cc1[N+](=O)[O-] returned Calb biofilm kill 15.
For CCOC(=O)N1CCN(c2cc(NCCO)c([N+](=O)[O-])c3nonc23)CC1 the results were Calb biofilm kill 13.
Screening CN(C)S(=O)(=O)c1ccc(NCC2COc3ccccc3O2)c([N+](=O)[O-])c1 (configuration not stated) returned Calb biofilm kill 9.

These rows are one share of the data. The share of hits here may be higher or lower than overall.
